Bioassay records (PubChem)
CSC inhib = blocks cancer stem cells. cancer stem cell-like cells viability, luminescence. 300,000 tested, 1.1% active. inhibition, % at 7.5 µM. AID 2717;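 active = mean at 75% or more and at least half the replicates too; inconclusive = mean and replicates disagree; tested in HMLE shEcad cells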;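 note: 0% = median of negative and 100% = median of positive control wells; the first replicate is given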
UUG fidelity = alters start codon recognition fidelity in yeast. S. cerevisiae UUG-firefly luciferase reporter, luminescence/redox ratio. activity score, % at 18.7 µM. 350,000 tested, 0.13% active;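 active = replicate mean at a twofold rise or more, about +100% in these data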;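 note: firefly luciferase made from a UUG start codon reports start codon fidelity; reporter light over untreated wells divided by growth signal over untreated wells; some hits fall short of that in this replicate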
PABP polyA inh = PABP-poly(A) binding inhibition. 290,000 tested, 1% active. P11940. PABP-poly(A) RNA binding, fluorescence polarization. AID 2014. inhibition, % at 35 µM;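 active = 50% or more with normal probe brightness, or confirmed in later tests; inconclusive = above 50% with abnormal brightness, or retests that disagree; inactive = below 50% or failed in later tests; about a fifth of its hits are not listed in these tables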;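 note: calls also rest on retests at 20 µM and on dose response follow-up; controls were probe without protein and protein plus probe with vehicle; some compounds called inactive have numbers as strong as hits; many hits fall short of the cut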
Target sequence (P11940 whole entry, looked up): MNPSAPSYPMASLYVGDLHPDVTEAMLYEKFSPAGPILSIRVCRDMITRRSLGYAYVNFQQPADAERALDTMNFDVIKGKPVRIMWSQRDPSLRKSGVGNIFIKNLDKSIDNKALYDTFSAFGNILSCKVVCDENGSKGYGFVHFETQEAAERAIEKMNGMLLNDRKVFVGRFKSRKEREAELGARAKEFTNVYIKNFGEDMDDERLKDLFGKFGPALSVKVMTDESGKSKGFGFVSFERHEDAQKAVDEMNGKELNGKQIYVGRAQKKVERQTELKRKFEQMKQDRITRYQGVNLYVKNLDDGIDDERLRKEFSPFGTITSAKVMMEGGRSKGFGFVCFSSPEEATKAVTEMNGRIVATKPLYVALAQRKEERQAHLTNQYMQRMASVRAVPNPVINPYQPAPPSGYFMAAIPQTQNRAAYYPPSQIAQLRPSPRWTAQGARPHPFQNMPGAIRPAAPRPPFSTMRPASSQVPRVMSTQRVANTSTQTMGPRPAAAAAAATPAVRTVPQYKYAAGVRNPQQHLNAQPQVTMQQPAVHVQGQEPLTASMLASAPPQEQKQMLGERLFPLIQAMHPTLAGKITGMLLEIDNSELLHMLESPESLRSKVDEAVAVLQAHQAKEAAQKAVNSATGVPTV
Rce1 inh = inhibitors of yeast Ras-converting enzyme. 290,000 tested, 0.27% active. yeast membranes, quenched prenylated peptide cleavage fluorescence. Q03530. calls only;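 active = fall in fluorescence gain of 50% or more versus controls, with final raw signal at or below 3038400; inconclusive = same 50% fall but final raw signal above 3038400; inactive = fall in fluorescence gain under 50%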;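 note: plate controls were neutral control wells for no effect and wells lacking membranes for full effect; tested at 10 µM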
Env fusion inh = blocks HIV Env-driven cell-cell fusion. 360,000 tested, 1.1% active. HeLa-JRFL Env/CEM21 cell fusion, luciferase. AID 651610. inhibition, % at 12.3 µM;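 active = mean replicate inhibition score of at least 50 and every replicate individually at or above 50; inconclusive = only one of the two criteria met; inactive = mean below 50 and not all replicates reaching 50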;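 note: 0% = plate neutral controls and 100% = maraviroc near 300 nM; one replicate is shown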
eIF4H inh = inhibitors of RNA binding by human eIF4H; Q15056; 290,000 tested, 0.94% active; eIF4H fluorescence polarization binding assay; AID 2012; inhibition, % at 35 µM;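 active = 50% or more with normal probe brightness, or confirmed in later tests; inconclusive = above 50% with abnormal brightness, or retests that disagree; inactive = below 50% or failed in later tests; about a fifth of its hits are not listed in these tables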;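 note: calls also rest on retests at 20 µM and on dose response follow-up; 0% = protein and probe with vehicle and 100% = probe without protein; strong numbers were not always called active; many hits fall short of the cut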
MT1-MMP act inh = MT1-MMP (human) activation inhibition; 360,000 tested, 0.061% active; GFP/RFP ratio change, % at 20 µM; HT1080 RFP-PRO-GFP cells, GFP/RFP ratio fluorescence, overnight; percent of plate control window, DMSO zero; P50281;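 active = GFP/RFP ratio change of at least 30% with cell ATP level not reduced by more than half and red fluorescence within 50% of control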; note: strong numbers were not always called active
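Assay system: RFP-PRO-GFP reporter HT1080 cells; read-out basis: GFP/RFP fluorescence ratio; benchmarks: DMSO wells and RFP-L50D-GFP cells; doses: 20 µM single dose, 1% DMSO; schedule: overnight cell settling, then overnight compound exposure, 37 °C, 5% CO2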
MT1-MMP act inh RFP = recorded beside MT1-MMP act inh, whose call it bears; RFP signal change, %; measured here: RFP expression control read;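 0 = vehicle wells; hits needed this value within 50% of zero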
The depositor's hits bear a star; i = inactive; ? = inconclusive; . = no result given. These rows are one share of the data. The share of hits here may be higher or lower than overall.

SMILES	CSC inhib	UUG fidelity	PABP polyA inh	Rce1 inh	Env fusion inh	eIF4H inh	MT1-MMP act inh	MT1-MMP act inh RFP
CC(Oc1ccccc1Cl)C(=O)Nc1ccccc1C(=O)N1CCOCC1 (configuration not stated)	-10	-10	8	i	23	-18	-2	0
OCCCCCCNc1ccc(CCO)cc1	.	-2	.	.	-57	.	6	2
Cc1cc(C(F)F)n2ncc(C(=O)NCc3ccc(F)cc3)c2n1	2	.	3	i	-3	1	0	0
COc1ccc(CC(=O)N(Cc2ccccc2)c2ccc(C)cc2)cc1OC	-10	3	3	i	12	2	-5	0
COC(=O)CCCC(=O)Nc1ccc(Br)cc1	-17	-13	9	i	-3	-3	0	2
CC(C)=C1SC(N2CCN(c3ccc(C)cc3)CC2)=NC1=O	-16	-21	-13	i	.	9	0	2
CC(C)OCC1CC(CC(=O)Nc2ccc([N+](=O)[O-])cc2)C(=O)O1 (configuration not stated)	.	.	4	i	12	4	-4	-2
Cc1ccc(-c2nn3c(C)nnc3s2)cc1NC(=O)COc1ccc(Cl)cc1	-9	-19	-4	i	6	-13	0	-2
O=C(O)Cn1c(CCS(=O)(=O)c2ccc(Br)cc2)nc2ccccc21	-12	.	-1	i	-10	10	2	5
CCOC(=O)C1CCN(C(=O)Cc2c(F)cccc2Cl)CC1	-10	.	-6	i	.	7	-2	-1
NC(=O)COC(=O)c1c2c(nc3ccccc13)CCCCC2	-11	.	-12	i	25	-5	-9	-4
COc1ccc([N+](=O)[O-])cc1NC(=O)c1ccc(-n2nc(C)cc2C)cc1	4	.	2	i	-7	-5	3	0
COc1ccc(Oc2nc(-c3ccccn3)nc3ccccc23)cc1	.	-26	3	i	-1	1	-3	-8
Cc1cccc(OCCCn2c(CO)nc3ccccc32)c1	20	-27	-10	i	8	-1	3	-4
Cc1[nH]c(=O)c(C#N)cc1-c1ccccc1	.	-17	0	i	i	-7	5	6
Cc1ccc(S(=O)(=O)Nc2ccccc2C(=O)N2CCCCC2)cc1	0	-9	-7	i	-33	-8	-4	-1
Clc1cccc(NCc2nnc(SCc3ccccc3Cl)o2)c1	7	.	-11	i	.	2	-1	3
O=C(N/N=C/c1cn(-c2ccccc2)nc1-c1cc2ccccc2o1)c1ccncc1	48	-28	2	i	-51	-7	-5	-6
O=C(CSc1nc2ccsc2c(=O)n1Cc1ccc(C(=O)O)cc1)NCc1ccco1	-15	-9	6	i	-15	17	-2	4
O=C(CCCn1cc([N+](=O)[O-])cn1)Nc1ccc2c(c1)OCO2	.	-12	-5	i	-1	-2	4	1
CCCCN(C(=O)c1ccc(-c2ccc([N+](=O)[O-])cc2)o1)c1c(N)n(CC(C)C)c(=O)[nH]c1=O	-4	-17	.	.	-11	.	-5	-2
O=C(Nc1cc(S(=O)(=O)N2CCCCC2)ccc1O)c1ccccc1NS(=O)(=O)c1ccc(F)c(F)c1	10	-1	-18	i	-2	-7	3	-2
CC(=O)Nc1ccc(CNc2nc3cc(-c4cccc(C(F)(F)F)c4)sc3c(=O)n2C)cc1	.	-12	.	.	?	.	-9	-28
Cc1ccc2[nH]c(=O)cc(C(=O)OC(C)C)c2c1	-1	.	1	i	-7	-2	-5	-2
O=C(O)c1cc(S(=O)(=O)N2CCCCC2)ccc1N1CCCCC1	-7	-4	.	.	3	.	-3	0
C=CCN(Cc1nc(-c2cc(OC)ccc2OC)oc1C)C1CCS(=O)(=O)C1 (configuration not stated)	12	.	0	i	-3	3	6	0
COc1ccccc1/C=N/NC(=O)CC(=O)NCc1ccccc1	-1	-6	14	i	-9	-4	0	7
Cn1ncc2cc3c(Nc4ccc(Cl)cc4)cccc3nc21	.	-13	.	.	12	.	-11	-18
Cc1cc(C)n(C(C)CC(=O)Nc2ccc3c(c2)OCCO3)n1 (configuration not stated)	8	-28	-8	i	-13	-1	3	4
O=S(=O)(Nc1cccc(S(=O)(=O)N2CCCC2)c1)c1cccs1	-8	.	.	.	11	.	-2	1
Cc1cc(C)c(C#N)c(SCC(=O)CC(=O)OC(C)C)n1	-14	-7	13	i	.	14	1	8
CC1CCCCC12NC(=O)N(CC(=O)OCC(=O)N(C)C1CCCCC1)C2=O (configuration not stated)	.	-7	.	.	-2	.	-2	3
Cc1cccc(OCC(=O)OCC(=O)N2CCN(C(=O)c3ccco3)CC2)c1C	0	4	2	i	15	5	0	4
COc1ccc(CCNC(=O)COC(=O)C23CC4CC(CC(Br)(C4)C2)C3)cc1	.	.	-2	i	-24	-5	3	3
CCCCNC(=O)Cn1nc([N+](=O)[O-])c([N+](=O)[O-])c1C	3	.	1	i	15	-4	0	0
CC(C)(CN1CCc2ccccc2C1)NS(=O)(=O)c1ccc(Cl)cc1	29	-7	-14	i	11	-1	1	1
CC(C)=C1C2CCC1C1C(=O)N(NC(=O)COc3ccc(C(C)(C)C)cc3)C(=O)C21 (configuration not stated)	-6	3	4	i	-24	12	-3	-4
Cc1nc2sc3c(c2c(=O)n1/N=C/c1ccco1)CCCC3	.	-13	1	i	.	3	3	0
COc1ncnc2c1ncn2CCCN1CCN(Cc2cccc3ccccc23)CC1	.	-15	.	.	-23	.	5	5
COCc1nnc(NC(=O)C2CC(=O)N(CCc3ccc(F)cc3)C2)s1 (configuration not stated)	-2	-10	5	i	-6	0	-1	3
CC(=O)NC(=S)Nc1ccccc1C(=O)NC1CCCCC1	1	.	-4	i	-12	-8	-1	2
O=C(CN1CCN(Cc2ccc(Cl)cc2)CC1)N/N=C/c1cccc(F)c1	-9	0	-4	i	22	0	2	-7
CCOc1ccc(N2C(=O)CC(N(CCc3ccc(OC)c(OC)c3)C(=O)/C=C/C(=O)O)C2=O)cc1 (configuration not stated)	-14	0	18	i	3	7	-3	-5
O=C(Cn1c2[n+](c3ccc(C(F)(F)F)cc31)CCCCC2)Nc1ccc(Br)cc1	-7	.	-2	i	.	-4	-4	-2
O=C(NCCc1ccccc1)C1CCN(S(=O)(=O)N2CCCC2)CC1	-5	-13	-4	i	.	3	3	3
CCOc1ccc(C(C)NC(=O)c2cccc(F)c2)cc1 (configuration not stated)	.	-6	-6	i	-7	-5	0	-4
Cc1csc(NC(=O)CCCC(=O)c2ccccc2)n1	3	-7	16	i	-9	49	2	1
O=C(COC(=O)CNS(=O)(=O)c1ccc(F)c(F)c1F)Nc1ccc(OC(F)F)cc1	-4	1	1	i	.	5	-3	0
CC(=O)c1cc(-c2ccccc2)[nH]c1N1CCCC1	-7	-21	11	i	.	3	-2	3
c1ccc(-n2cccc2)c(N2CCCCC2)c1	0	101*	4	i	9	4	-2	1
CCN1CCN(c2oc(COc3ccc(Cl)cc3)nc2C#N)CC1	3	-13	0	i	7	-9	3	6
O=C(CSc1nnc(-c2cccnc2)n1Cc1ccco1)Nc1cccc(O)c1	-5	-28	-2	i	-8	-14	1	1
Clc1ccc(-c2nnc3sc(Cc4cccs4)nn23)c(Cl)c1	-1	-26	-1	.	-51	0	7	4
O=c1[nH]c(NC2CCN(S(=O)(=O)c3ccccc3C(F)(F)F)CC2)nc2c1CCCC2	.	-4	0	i	5	2	2	-6
COc1ccc(C(CNC(=O)c2cc3ccccc3cc2OC)N2CCCC2)cc1 (configuration not stated)	-12	0	-3	i	-18	-3	-5	-5
CCCSc1nc(O)c(C2OC(=O)c3c2ccc(OC)c3OC)c(=O)n1C (configuration not stated)	-3	.	1	i	-66	5	8	-1
COc1ccc(C(=O)Nc2ccccc2N2CCN(C(=O)c3ccccc3)CC2)cc1Br	24	-9	3	i	13	7	6	-6
O=C(O)c1ccccc1SCC(=O)N1CCOCC1	-12	.	-6	i	-11	-3	4	5
N/C(=N\OC(=O)c1cccc(Cl)c1)c1cccnc1	-5	10	0	i	.	-4	-5	-1
O=C(COC(=O)C1CC2CCCC(C1)C2=O)NC(=O)c1ccccc1 (configuration not stated)	-17	-4	.	.	-18	.	-1	-1

Another view of three compounds above.
Cc1cccc(OCCCn2c(CO)nc3ccccc32)c1
  CSC inhib: 20	UUG fidelity: -27	PABP polyA inh: -10	Rce1 inh: i	Env fusion inh: 8	eIF4H inh: -1	MT1-MMP act inh: 3	MT1-MMP act inh RFP: -4
Cc1cccc(OCC(=O)OCC(=O)N2CCN(C(=O)c3ccco3)CC2)c1C
  CSC inhib: 0	UUG fidelity: 4	PABP polyA inh: 2	Rce1 inh: i	Env fusion inh: 15	eIF4H inh: 5	MT1-MMP act inh: 0	MT1-MMP act inh RFP: 4
c1ccc(-n2cccc2)c(N2CCCCC2)c1
  CSC inhib: 0	UUG fidelity: 101*	PABP polyA inh: 4	Rce1 inh: i	Env fusion inh: 9	eIF4H inh: 4	MT1-MMP act inh: -2	MT1-MMP act inh RFP: 1

An excerpt from further up, for reference:
SMILES	CSC inhib	UUG fidelity	PABP polyA inh	Rce1 inh	Env fusion inh	eIF4H inh	MT1-MMP act inh	MT1-MMP act inh RFP
Clc1ccc(-c2nnc3sc(Cc4cccs4)nn23)c(Cl)c1	-1	-26	-1	.	-51	0	7	4
O=c1[nH]c(NC2CCN(S(=O)(=O)c3ccccc3C(F)(F)F)CC2)nc2c1CCCC2	.	-4	0	i	5	2	2	-6
COc1ccc(C(CNC(=O)c2cc3ccccc3cc2OC)N2CCCC2)cc1 (configuration not stated)	-12	0	-3	i	-18	-3	-5	-5
CCCSc1nc(O)c(C2OC(=O)c3c2ccc(OC)c3OC)c(=O)n1C (configuration not stated)	-3	.	1	i	-66	5	8	-1
COc1ccc(C(=O)Nc2ccccc2N2CCN(C(=O)c3ccccc3)CC2)cc1Br	24	-9	3	i	13	7	6	-6
O=C(O)c1ccccc1SCC(=O)N1CCOCC1	-12	.	-6	i	-11	-3	4	5
N/C(=N\OC(=O)c1cccc(Cl)c1)c1cccnc1	-5	10	0	i	.	-4	-5	-1

New compounds follow.
SMILES	CSC inhib	UUG fidelity	PABP polyA inh	Rce1 inh	Env fusion inh	eIF4H inh	MT1-MMP act inh	MT1-MMP act inh RFP
CCOc1cccc(C(=O)NNC(=O)CCC(=O)O)c1	-8	.	7	i	42	-14	5	7
CCC(=O)N1CCc2cc(Br)cc(S(=O)(=O)CCC(=O)N(CC)CC)c21	-14	-9	-1	i	-4	12	0	3
CC(C)CCN1CC(C(=O)N2CCN(c3ccc(F)cc3)CC2)CC1=O (configuration not stated)	-5	-3	5	i	.	9	3	3
O=C(NCCS(=O)(=O)N1CCN(c2ccccc2)CC1)C1CCCC1	.	-3	.	i	10	.	6	2
O=C(O)/C(=C\c1ccc(C(F)(F)F)cc1)c1ccc(S(=O)(=O)N2CCCC2)s1	-8	-22	.	.	.	.	-1	4
Cc1cccc(NC(NC(=O)Cc2ccccc2)C(Cl)(Cl)Cl)c1 (configuration not stated)	35	.	-1	i	14	-1	-6	-2
